# NPYLR7 ag: mosquito NPYLR7 agonism. HEK293T NPYLR7/Galpha15, GCaMP6s calcium fluorescence. activation, % at 10 µM. hit rate 0.15% among 270,000; in the data active = activation above about 40%;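 also: 0% = vehicle and 100% = reference agonist at the receptor; some compounds past the cut are filed as inactive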
# NPYLR7 ag max-min: further read-out of NPYLR7 ag, marked with its call; activation, %; measured here: Max-Min RFU normalised activation; some inactives read as strong as hits;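 span of the calcium signal over five minutes; 0% = vehicle and 100% = native peptide agonist; compound fluorescence can raise it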
# Numbers without * were called inactive; & = joins results of further samples. Some of the compounds tested; count on the stated rates, not on these rows.
mol,NPYLR7 ag,NPYLR7 ag max-min
CC1(C)CN(C(=O)c2ccc(F)cc2)C2(S1)C(=O)N(Cc1ccccc1)c1ccccc12 (stereo unspecified),-2,3
CN(C)c1ccc(CN2CCCC(OCc3cccnc3)C2)cn1 (stereo unspecified),2,2
CN1CCOc2cc(C(=O)N3CCN(C)C(C(=O)O)C3)ccc21 (stereo unspecified),4,3
COc1cc(C2C(C#N)=C(C)NC3=C2C(=O)CC(C)(C)C3)ccc1OCCO (stereo unspecified),4,-3
COc1ccc(S(=O)(=O)N2CCCC2c2nc3cc(-c4ccccc4)ccc3o2)cc1 (stereo unspecified),6,3
COCCN(CC(=O)N1CC(=O)N(c2cccc(C)c2)C1)C(=O)c1cccc2ccccc12,1,3
CCSC[C@H](N)C(=O)N[C@H]1C[C@H]2C(=O)N(C)CC(=O)N2C1,27,10
CCC(O)=C1C(=O)CC(C)(C)CC1=Nc1ccccc1C,5,8
Cc1cccc(N2C(=O)C3C4C=CC(C4)C3C2=O)c1 (stereo unspecified),4,2
CCc1ccc(CN(C)C(=O)CCc2nnc(CCc3cccc(OC)c3)o2)nc1,2,1
CC(C)(C)c1csc(NC(=O)C2CCCCC2C(=O)O)n1 (stereo unspecified),-4,-10
COc1cccc(C(C)(O)c2nc(-c3ccc(OC)nc3)cs2)c1 (stereo unspecified),1,-2
O=C(CCN(Cc1ccccc1)c1nc(-c2ccccc2)nc2ccccc12)Nc1ccccc1F,16,23
CC1=C(C(=O)OC(C)C)C(c2cccc(O)c2)C2=C(CC(c3ccccc3)CC2=O)N1 (stereo unspecified),2,0
COc1ccc(S(=O)(=O)Oc2cc(CN(CCN(C)C)C(=O)c3ccco3)ccc2OC)cc1,19,24
COc1ccc(CCN(C)C(=O)CCCC(=O)c2ccccc2)cc1OC,-4,-11
CSc1ncccc1C(=O)NCCn1ncc2c(=O)n(Cc3cccc(C)c3)cnc21,-5,-7
CC(C)c1nccc(CN(C)C(C)C(=O)N(C)C)n1 (stereo unspecified),23,13
Cc1cc(C(=O)NCCN2CCOC2=O)nc(C)n1,4,1
COC(=O)Cn1c(O)c(N=NC(=O)CNC(=O)c2ccco2)c2ccccc21,10,14
Cc1cc(C)c(CNC(=O)Cc2ccc3ccccc3c2)c(=O)[nH]1,-2,-3
O=S(=O)(NCc1ccc(CN2CCOCC2)cc1)c1cc(F)cc(F)c1,-7,-8
CCc1cc(CN(C)c2nccc(-c3ccc(C)nc3C)n2)on1,-2,-3
CC(Nc1cc(Cl)nc(N)n1)c1cc(F)ccc1N1CCC(O)CC1 (stereo unspecified),6,4
Cc1cc(C)c(S(=O)(=O)N=C2C=CC(=O)C=C2)cc1C,1,0
Cn1cc(-c2csc(C(C)(O)c3cccc(F)c3)n2)cn1 (stereo unspecified),5,-1
Cc1cccc(NC(=O)NCCn2ncccc2=O)c1C,-12,-21
Cc1noc(C)c1C(=O)N1CCC1(C)C(=O)NS(=O)(=O)c1ccc(Br)cc1 (stereo unspecified),5,3
CCCCN(CCO)C(=O)c1ccc(F)c(C(F)(F)F)c1,-1,0
NS(=O)(=O)c1ccc(O)c([N+](=O)[O-])c1,1,1
CCC(Sc1ncc(S(=O)(=O)c2ccc(Cl)cc2)c(=O)[nH]1)C(=O)Nc1ccc(F)cc1 (stereo unspecified),1,1
CNC(=O)c1nnc2n1C(c1ccccc1)CN(Cc1cccn1-c1ncccn1)C2 (stereo unspecified),7,2
Cc1[nH]c(=S)c(C#N)c(C)c1C,1&-3,3&-4
OC(OCc1ccc(C(O)(C(F)(F)F)C(F)(F)F)o1)(C(F)(F)F)C(F)(F)F,6,-1
CCOc1ccc(-n2c(C)c(C(=O)OC3CCCCC3)c3cc(OC)ccc32)cc1,-7,-15
COc1cccc(N2C(=O)CSC2c2cccc(NC(=O)COCc3ccccc3)c2)c1 (stereo unspecified),0,4
CCCc1nc(C(=O)NCc2cnn3ccccc23)cs1,17,7
Cc1cc(C)c(NC(=O)CCc2ccccc2Cl)c(C)n1,0,13
CCn1c(C2CCNCC2)nn(Cc2nccc(OC)c2OC)c1=O,-4,-5
O=C(c1cccc(C(=O)N2CCCc3cc(Cl)cc(Cl)c32)n1)N1CCCC1,3,2
COc1ccc(Oc2cnn(-c3ccc(C)cc3)c(=O)c2Nc2cccc(C(=O)NCC3CCCO3)c2)cc1 (stereo unspecified),1,2
COc1ccc(NC(=O)c2sccc2OC)c(C)n1,4,0
CCC(C(=O)NCc1cccc(C(F)(F)F)c1)n1c(=O)n(-c2cccc(C(F)(F)F)c2)c(=O)c2ccccc21 (stereo unspecified),9,22
O=C(c1cccc(F)c1)N(Cc1cccc(OCc2nc(CO)cs2)c1)Cc1ccco1,-8,-4
CC1CN(C(=O)CCCSc2nnc(-c3ccc(Cl)cc3)n2-c2ccccc2)CCN1C(=O)c1ccc(F)cc1 (stereo unspecified),16,23
CC(C)c1cc(C2CCN(C(=O)[C@@]34CC[C@@](C)(OC3=O)C4(C)C)CC2)[nH]n1,0,-5
CC(C)Cc1cc(Cn2cc3ncccc3c2O)on1,0,-1
Cc1ccc(-c2noc(CCN(Cc3ccco3)CC(O)COCc3ccccc3)n2)cc1 (stereo unspecified),-9,-6
CC/C=C(/C)C(=O)Nc1ccc(C(N)=O)c(N2CCCCC2)c1,1,31
O=C(CC1CCS(=O)(=O)C1)N1CCCC1c1noc(C2CC2)n1 (stereo unspecified),3,0
Cc1nn(C)c(C)c1CN(C(=O)c1cc(COc2ccccc2F)[nH]n1)C1CC1,8,7
CCC(CC)C(=O)N1[C@@H](c2ccco2)[C@@H](CO)C[C@]12CCCCN(CCO)C2=O,6,18
COc1ccccc1OCc1cc(C(=O)N(C)Cc2cc(C)no2)n[nH]1,15,1
Cc1cc(C)cc(N2CCC(N3C[C@H](O)[C@@H](N4CCN(C)CC4)C3)CC2)c1,12,8
Nc1cnn(CCN2CCCCC2)c1,-4,4
Cc1cccc(Oc2cc(C)nc(SCc3ccc([N+](=O)[O-])cc3)n2)c1,0,12
CCOc1ccc(C(=O)N2CCC3(CCNC(=O)CC3)CC2)cc1OCC,2,1
COCC(=O)Nc1ccc(-n2nc(OCc3ccc(F)cc3)nc2-c2ccc(F)cc2)cc1,4,9
CC(C)n1nc(C(=O)N2CC3CC4CC(C3)CC2C4)c2ccccc2c1=O,-3,30
O=C(NCCOc1cc(N2CCCCC2)ncn1)C1CC1,1,-2

# More records.
mol,NPYLR7 ag,NPYLR7 ag max-min
O=C(Nc1ccc2c(c1)CCC2)C1CCCN1C(=O)c1cccs1 (stereo unspecified),-3,-4
CCCn1ncc(C(=O)N(CC)Cc2noc(C)n2)c1C,5,-8
COc1ccc(C2c3cccn3CCCN2Cc2cccc(Cl)c2)cc1O (stereo unspecified),3,19
CC(C)CC(C(=O)O)N1C(=O)C2CC=C(Cl)CC2C1=O (stereo unspecified),4,3
CC(=O)c1c(C)[nH]c(C(=O)NCc2cccc(OC(F)F)c2)c1C,6,3
Nc1cc(Br)cnc1N,33&2,32&9
CC(C)C(NS(=O)(=O)c1ccc2c(c1)OCCO2)C(=O)N(C)Cc1c(Cl)nc2sccn12 (stereo unspecified),3,9
COc1cc2c(cc1OC)C1CN(S(=O)(=O)c3cc(F)ccc3F)CC(=O)N1CC2 (stereo unspecified),-1,11
CN(C)c1ncnc(N2CCC(O)CC2)c1N,6,2
Cc1ccc(-c2cn3cccnc3n2)cc1NC(=O)CC(C)(C)C,9,11
COc1ccc(S(=O)(=O)NC(=O)c2c(C)noc2C(C)C)cc1OC,1,5
Cc1ccc(/C=C2N=C(/C=C/c3cccc(Cl)c3Cl)OC\2=O)o1,0,-5
CCN(Cc1cccc(F)c1)C(=O)c1ccc(N2CCCS2(=O)=O)cc1,2,0
CCOc1ccc(Oc2cc(CNc3cn[nH]c(=O)c3Cl)ccn2)cc1,-1,-4
CC(=O)c1cccc(CN2CCC(C(=O)Nc3ccc(Oc4cccnc4)cc3)CC2)c1,1,-2
CCn1c(O)c(C=NCC(C)(C)N2CCOCC2)c(=O)n(CC)c1=S,12,8
O=C(c1ccccc1)N(Cc1cccnc1)c1nc2c(Cl)cccc2s1,2,1
COc1ccc(F)cc1S(=O)(=O)N(C)C,3,2
N#Cc1ccc(NCc2nc(-c3ccco3)n[nH]2)nc1,19,11
CC(C)Cn1c(=O)c2c(nc3n2CCCN3c2ccccc2)n(C)c1=O,6,0
NS(=O)(=O)c1ccc(N2CCN(S(=O)(=O)c3ccc(Cl)s3)CC2)nc1,3,10
CC(C(=O)NCc1ccccc1)S(=O)(=O)Cc1ccccc1C(F)(F)F (stereo unspecified),0,0
O=C1Nc2ccccc2C12CCCN(c1nnnn1-c1ccccc1)C2 (stereo unspecified),5,4
COc1cc(C=CC(=O)N2CCN(Cc3nc4ccccc4s3)CC2)cc(OC)c1,4,3
Cc1cc(Nc2ccc(Nc3ccccc3)cc2)ncn1,-11,-15
c1cc2n(c1)CCCN(Cc1ccc3c(c1)OCCO3)C2c1ccoc1 (stereo unspecified),21,20
CC(=O)c1cccc(CN(C)C(C)c2cccnc2)c1 (stereo unspecified),-2,-9
CCOc1ccc(-c2cc3c(=O)n(Cc4nc(-c5cccc(C(F)(F)F)c5)no4)ccn3n2)cc1,-5,-10
O=C(c1cnn2c(C(F)(F)F)cc(-c3ccc(F)cc3)nc12)N1CCCc2ccccc21,-8,-7
CC1NC(=O)N(c2ccc(Cl)c(Cl)c2)OC1=O (stereo unspecified),10,6
O=C(O)c1ccc(CN2CCc3cc(-n4cccn4)cnc32)cc1,18,9
COc1ccc(-c2c(C)nn(-c3ccccc3)c2C)c(C(=O)NCCn2c(=O)[nH]c3ccccc32)c1,-6,-12
Cc1ncc(C(=O)OCc2cnccn2)s1,2,-1
COc1ccc(Cl)cc1S(=O)(=O)N1CCN(c2ccc(C)c(Cl)c2)CC1,-1,1
O=C(Nc1cccc(C2SCC(=O)N2c2cccc(F)c2)c1)C1CCCC1 (stereo unspecified),21,25
CCCCN(CC#N)c1cc(CC)nc2ncnn12,-1,-3
O=C(Nc1ccc(Cl)cc1Cl)c1cccn(OCc2ccc(F)cc2)c1=O,6,4
CCCC(C)(C)NC(=O)c1nnn(-c2ccc(F)cc2)c1C,-1,-2
CC1=C(C(=O)Nc2[nH]nc3c2c(C)nn3C)Cc2ccccc2O1,-4,-10
Cc1cc(NC(=O)Cn2cnc3scc(-c4ccc(C)s4)c3c2=O)no1,11,18
Cc1ccc([N+](=O)[O-])cc1S(=O)(=O)N1CCCC1c1ccc2c(c1)OCCCO2 (stereo unspecified),0,26
Cc1cc(C(=O)N2CCC3(CCNC3=O)CC2)nn1-c1ccccc1,1,36
Cc1cn2c3c(=O)n(Cc4cccc5ccccc45)c(=O)n(C)c3nc2n1CC1CCCO1 (stereo unspecified),0,5
O=C(NCCc1ccccc1)C(C1CCCC1)N1CCN(C(=O)COCc2ccccc2)CC1 (stereo unspecified),-6,-3
COc1ccc(Nc2nc(-c3ccccc3Cl)nc3cc(Cl)ccc23)cc1,-6,3
COC(=O)C1c2c(OC)ccc3c2C(=CC(C)(C)CO3)CN1Cc1ccccc1 (stereo unspecified),11,15
Cc1nn2c(NCc3ccccn3)cc(C(C)C)nc2c1-c1ccccc1,0,1
CCc1nc2ccc(C(=O)Nc3ccc(NC(C)=O)cc3)cn2c1N(CC)Cc1ccc(OC)c(OC)c1,8,10
CN(C)S(=O)(=O)c1cccc(C(=O)N2CCCCC2C(=O)Nc2ccc(Cl)c(Cl)c2)c1 (stereo unspecified),8,3
Cc1cccc(OCc2nc(-c3ccccn3)n[nH]2)c1,3,0
CCCCCCn1c(SCC(=O)c2ccccc2)nc2c1c(=O)[nH]c(=O)n2C,2,0
C=C(Cl)Cn1c(=O)c(CNC2CCOC(C)(C)C2)cc2cc(OC)c(OC)cc21 (stereo unspecified),17,7
COc1ccc(Nc2cc(C)nc(NCCNC(=O)c3ccco3)n2)cc1,7,4
CCc1nc2ccc(C(=O)NCCN3CCNC3=O)cn2c1N(C)C(=O)Cc1ccccc1,18,19
CCCCN(CC(=O)N1c2ccccc2-n2cccc2C1c1cccc(Cl)c1)C(=O)Nc1ccccc1OC (stereo unspecified),16,25
Nc1nc(COc2cccc3cccnc23)nc(Nc2ccccc2)n1,7,8
CCOC(=O)c1sc(NC(=O)CN2C(=O)c3ccccc3C2=O)c(C(=O)OCC)c1C,-3,-7
